Screening results deposited in PubChem by National Center for Advancing Translational Sciences (NCATS).
NPR1 antag: Natriuretic polypeptide receptor (hNpr1) antagonism - Primary qHTS. AID 1347048, 2019. Atrial natriuretic peptide receptor 1 (Homo sapiens), P16066. 76,000 compounds, 1.6% hits. HEK293 hNpr1 GloSensor cGMP, ANP-stimulated luminescence. Potency, µM (titrated, usually from 46.3 µM), without a hit: at the top dose activity change, negative = inhibition, most hits filed as inhibitors; active = well fitted inhibition curve with a large enough effect; inconclusive = small, poorly fitted or top-dose-only effect; inactive = no such curve, though single readings can be large or run the other way;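 note: nearly all actives have a fitted effect of over 60% in size; nearly all hits also lower the signal before the agonist is added; a reference antagonist and vehicle were the controls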
Target sequence (P16066 whole entry, looked up): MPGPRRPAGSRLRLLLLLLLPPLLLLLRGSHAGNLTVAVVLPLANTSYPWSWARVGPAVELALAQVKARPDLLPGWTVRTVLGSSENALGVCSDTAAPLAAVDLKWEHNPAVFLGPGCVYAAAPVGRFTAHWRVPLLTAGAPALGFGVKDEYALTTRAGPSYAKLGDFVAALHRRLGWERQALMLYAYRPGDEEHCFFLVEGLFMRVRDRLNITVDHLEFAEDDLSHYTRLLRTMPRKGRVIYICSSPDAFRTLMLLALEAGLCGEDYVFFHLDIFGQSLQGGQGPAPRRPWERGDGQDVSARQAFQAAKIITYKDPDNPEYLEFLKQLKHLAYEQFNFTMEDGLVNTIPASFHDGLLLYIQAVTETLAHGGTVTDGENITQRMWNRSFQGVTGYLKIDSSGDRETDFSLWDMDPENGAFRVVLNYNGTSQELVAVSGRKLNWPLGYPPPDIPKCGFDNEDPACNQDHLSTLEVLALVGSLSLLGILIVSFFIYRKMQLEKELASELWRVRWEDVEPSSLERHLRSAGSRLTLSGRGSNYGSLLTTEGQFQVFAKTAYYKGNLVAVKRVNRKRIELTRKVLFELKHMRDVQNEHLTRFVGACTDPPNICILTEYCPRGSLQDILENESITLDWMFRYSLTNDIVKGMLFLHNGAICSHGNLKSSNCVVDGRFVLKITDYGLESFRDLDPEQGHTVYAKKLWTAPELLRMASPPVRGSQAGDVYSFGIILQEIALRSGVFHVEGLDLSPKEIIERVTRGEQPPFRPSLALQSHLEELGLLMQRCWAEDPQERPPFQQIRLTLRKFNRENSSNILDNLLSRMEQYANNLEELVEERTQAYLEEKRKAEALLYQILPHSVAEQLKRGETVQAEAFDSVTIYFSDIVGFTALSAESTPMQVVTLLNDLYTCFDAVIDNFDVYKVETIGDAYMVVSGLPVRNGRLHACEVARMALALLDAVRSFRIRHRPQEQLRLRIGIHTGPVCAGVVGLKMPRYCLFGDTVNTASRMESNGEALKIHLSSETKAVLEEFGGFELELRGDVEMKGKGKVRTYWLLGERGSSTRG
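Compound pre-incubated 30 min at room temperature on GloSensor-loaded HEK293 cells stably carrying hNpr1 and the pGS-40F cGMP biosensor. Stimulation uses hNppA at 0.1 nM final; luminescence is taken at baseline and 20 min post-agonist.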
* hit, by the source's call; ? = inconclusive; [ ] = remark or other dose. % is set by controls: 0 for no effect and ±100 for the full control effect; potency is the fitted concentration of half-maximal effect. Not all compounds are listed; count on the stated rates, not on these rows.

SMILES	NPR1 antag
COc1cc(NC(=O)CN2C(=O)NC3(CCCCC3)C2=O)cc(OC)c1	5.1%
Cc1ccc2nc(C(=O)N[C@H](c3cnn(C)c3)C3CC(O)C3)cn2c1 (stereo partly drawn)	11.2%
O=C(NC1CCCC1)N1CCC2(CC1)CC(N1CCOCC1)CCO2 (stereo not drawn)	12.0%
CN(Cc1ccc(F)cc1)C(=O)c1ccccc1Cl	2.2%[70.6 µM]
O=C1NCCOCCN(C(=O)Cc2c[nH]c3ccccc23)[C@H]2CCC[C@@H]12	-2.8%
Cn1nc(C2CCCN(Cc3ccncc3F)C2)n(-c2ccccc2)c1=O (stereo not drawn)	4.6%
COCC(=O)N[C@H]1CCN(C(=O)COC)[C@H](C(=O)N[C@H](Cc2ccccc2)C(N)=O)C1	0.3%[70.6 µM]
Cc1cccc(C(=O)N2CCC(C(=O)N3CCCCCCNC(=O)CC3)CC2)c1	2.4%
Cc1cccc(C)c1NC(=O)CN1C(=O)NC2(CCC(C(C)(C)C)CC2)C1=O (stereo not drawn)	0.0%
Cc1cc(C)c(C(=O)N2CCC(=O)N(CC3CC3)C(C(C)C)C2)cc1C (stereo not drawn)	4.0%
Fc1ccc(CCNc2cc(Cl)nc3ccnn23)cc1	?
O=C(Cn1nnnc1CN1CCCC1)N1CCN(C2CCc3ccccc3C2)CC1 (stereo not drawn)	11.8%
COc1ccc(NC(=O)O[C@@H]2CO[C@H]3[C@@H]2OC[C@@H]3NS(=O)(=O)c2ccc(NC(C)=O)cc2)cc1	-0.6%
CCc1cccc(NC(=O)c2c(OC)cc(=O)n3c2CCCC3)c1	-2.5%
O=C(NCc1cccc(Cl)c1)c1nnn2c1COC(c1ccc(Cl)cc1)C2 (stereo not drawn)	-0.8%
CC(C)(C)c1ccc2c(c1)C(C[C@H]1CN(S(C)(=O)=O)CC[C@H]1CC(=O)O)=NCC2	3.3%[70.6 µM]
Cc1ccc2[nH]c(CCn3cc(-c4cncnc4)nn3)nc2c1C	-1.2%
COc1ccc(NC(=O)N2CCCC(Cn3cnc4cccnc43)C2)c(OC)c1 (stereo not drawn)	0.7%
Cc1noc(C2CC3(CCN(C(=O)c4cnccn4)CC3)CN2C)n1 (stereo not drawn)	3.5%
COc1ccc(C(C(=O)O)N2CCCN(c3ncccn3)CC2)c(OC)n1 (stereo not drawn)	3.6%
C[C@@]1(O)CCN(C(=O)CN)C[C@@H]1Cc1ccccc1	4.4%
O=C(c1ccc(Cl)cc1)N1CCC2(CC1)N=C(c1ccccc1)NO2	0.0%
CCOc1ccc(CN2CC(Oc3ccccc3C(=O)NC3CC3)C2)cc1	3.2%
Cc1ccc(C2=NC3(CCN(C(=O)c4ccc(C)c(F)c4)CC3)ON2)cc1	-16.7%
CNC(=O)N1C[C@@H](CN(C)C)[C@H](NS(=O)(=O)c2cc(F)ccc2C)C1	2.3%

3 records picked at random from the list so far:
SMILES	NPR1 antag
Cn1nc(C2CCCN(Cc3ccncc3F)C2)n(-c2ccccc2)c1=O (stereo not drawn)	4.6%
Cc1ccc2nc(C(=O)N[C@H](c3cnn(C)c3)C3CC(O)C3)cn2c1 (stereo partly drawn)	11.2%
Cc1ccc(C2=NC3(CCN(C(=O)c4ccc(C)c(F)c4)CC3)ON2)cc1	-16.7%

Additional records.
SMILES	NPR1 antag
N#Cc1ccc(CN2CCCN(S(=O)(=O)c3ccccc3)CCC(=O)NCC2)cc1	-6.3%
CC1(C(=O)NCC2CCCO2)CCc2cnc(NCc3ccccc3)nc21 (stereo not drawn)	-4.8%[70.6 µM]
O=C1NC2(CCN(Cc3ccncc3)CC2)Oc2ccccc21	5.9%[70.6 µM]
O=C(c1ccccn1)N1CCN(C(=O)c2nnn3c2COC(c2ccccc2)C3)CC1 (stereo not drawn)	1.9%
O=C(C1CCCC1)N1CCC2(Cc3ccccc3NC2=O)C1 (stereo not drawn)	-5.1%[70.6 µM]
COC[C@@H]1CN(C(=O)Cn2ccc(C)n2)C[C@H]1c1ccccn1	0.4%
O=C(C1CC(=O)N(c2n[nH]c3cccc(F)c23)C1)N1CCc2ccccc2C1 (stereo not drawn)	1.6%
Cc1nc(C2CCN(C(=O)[C@H]3CNC[C@H](C(=O)N4CCCC4)C3)CC2)n[nH]1	2.2%
O[C@@H]1C[C@@H](c2nnc3n2CCN(Cc2ccccc2)C3)N(Cc2cccnc2)C1	2.3%
CNC(=O)C(C)(C)N1CCC[C@H]1C(=O)NCc1ccccc1	-2.1%[70.6 µM]
O=C(Nc1ccccc1)N1CCC(N2CC3CCCN3C2=O)CC1 (stereo not drawn)	-2.2%[70.6 µM]
COc1ccc(-n2ccnc2-c2cc3n(n2)CCCNC3)c(OC)c1	4.6%
COc1cc(OC)c(C(=O)N[C@H]2COC[C@H]2Cc2cc(C)no2)cc1OC	-4.1%
O=C(N[C@H](Cc1ccccn1)C1CC(O)C1)c1n[nH]c2c1CCCC2 (stereo partly drawn)	3.8%
O=C(C1CCC1)N1CC(Oc2ccccc2-c2nc(-c3cnccn3)no2)C1	-3.5%
O=C(NCCc1ccccn1)C1CC(=O)N(c2n[nH]c3cc(Br)ccc23)C1 (stereo not drawn)	-3.8%
COc1cccc2c1OCC(C(=O)N1CCC(Cn3cc(C)cn3)CC1)C2 (stereo not drawn)	-5.7%
CC(C)NC(=O)C[C@@H]1c2nc(NC(=O)c3ccc(C(C)(C)C)cc3)sc2C[C@@H]2[C@](C)(CO)[C@H](O)CC[C@]21C	4.7%
CNC(=O)N1CCC(C2CCN(C(=O)c3ccccc3OC)C2)CC1 (stereo not drawn)	-2.3%
O[C@H]1[C@H](NCc2ccc(OC(F)(F)F)cc2)[C@H]2CO[C@H](O2)[C@@H]1N1CCC(Cc2ccccc2)CC1	?
CN1C(=O)CCc2cc(NC(=O)Cc3ccc(Cl)cc3)ccc21	-1.5%
CN(CCNC(=O)C1CCN(c2cn[nH]c(=O)c2)C1)C1CCCCC1 (stereo not drawn)	2.3%
Cc1noc(-c2cccn3c(CNC(=O)c4c[nH]c5ccccc45)nnc23)n1	-0.6%
Cc1nc2ccccn2c1C(=O)NC(C)c1cnn(-c2ccccn2)c1C (stereo not drawn)	4.47µM*
COc1ccc(C2NC(=O)N(CC(=O)NC(C)C)C3=C2C(=O)OC3)cc1 (stereo not drawn)	1.1%
(continued)
SMILES	NPR1 antag
COCCN1CCOC[C@H]2CCN(C(=O)c3ocnc3C)C[C@H]21	-0.5%
N#Cc1cccc(C(=O)NCC(=O)N2CCCCCCNC(=O)CC2c2ccccc2)c1 (stereo not drawn)	6.2%
COC(=O)C1=C(C)N=C2SC=C(CC(=O)N3CCOCC3)N2C1c1ccc(OC)cc1OC (stereo not drawn)	0.6%
Cn1nc(C(=O)N2CCC(OCCOc3ccccc3)CC2)c2ccccc21	-0.6%
CCNC(=O)[C@@H]1C[C@H](NC(=O)c2ccc(CO)o2)CN1Cc1nccs1	3.7%
O=C1Nc2ccc(-c3cccc(C(F)(F)F)c3)cc2C(=O)N2CCN(C(=O)[C@@H]3CSCN3)C[C@H]12	1.2%
COc1ccccc1CNC(=O)c1ccc2c(c1)C(O)CCCCCN2C (stereo not drawn)	-14.2%
Cc1nn2c(c1-c1ccccc1C(C)C)N(C(=O)c1ccn(C)n1)CCC2	-0.9%[70.6 µM]
Cc1ccsc1CN1CCC(CO)(CN2CCCC2)CC1	4.6%
CCNC(=O)N1CCCCCC1CN1CCC(C)CC1 (stereo not drawn)	0.0%
CCCCNC(=O)c1cccc2c1CCN2C(=O)C1CC1	-2.4%
O=C(NCc1ccco1)C1CCN(C(=O)c2ncn3c2COC(c2ccccc2)C3)CC1 (stereo not drawn)	-20.7%
CCN(CC)C(=O)[C@@H]1CCC[C@@H](NCc2cccc(OC)c2)CN(C)C(=O)C1	3.4%[70.6 µM]
Cc1nn(C)c(C)c1CNC(=O)Cn1nc2c(cc1=O)CCCCC2	8.2%
CC(C)Oc1cc(N(C)CC2CC(=O)N(C(C)(C)C)C2)nc(N)n1 (stereo not drawn)	4.3%
O=C(Cc1ccsc1)N1CCC2(CC1)CC(N(Cc1ccc(F)cc1)C1CC1)CCO2 (stereo not drawn)	-0.2%
COc1ccc(-c2cc(N3CCCC(NC(=O)Cc4ccc(F)cc4)C3)n[nH]2)cc1 (stereo not drawn)	-10.9%
Cc1ccc(-c2noc([C@@H]3CCCN3C(=O)CCCc3ccccc3)n2)cc1	-20.4%
O=C(C1CCCN(c2cn[nH]c(=O)c2)C1)N1CCN(c2ccccn2)CC1 (stereo not drawn)	-1.0%
CCC(O)c1cc2n(n1)CCN(CC(=O)Nc1cnn(C)c1)C2 (stereo not drawn)	0.8%
COC1CCOC2(CCN(C(=O)Nc3cccc(C)c3)CC2)C1 (stereo not drawn)	0.0%
COC1CCC12CCN(C(=O)NC(C)(C)C)CC2 (stereo not drawn)	4.7%
O=C(N[C@@H]1CN(Cc2ccc(F)cc2)C[C@H]1CO)c1cccnc1	-1.8%
COc1ccc(-c2noc([C@@H](C)NC(=O)c3nc4ccccc4s3)c2C(=O)O)cc1	-1.6%
FC(F)(F)c1ccnc(N2CCOCC3(CN(Cc4ccccc4)C3)C2)n1	0.9%[70.6 µM]

Shown bar-delimited: part of the list above
SMILES | NPR1 antag
COC(=O)C1=C(C)N=C2SC=C(CC(=O)N3CCOCC3)N2C1c1ccc(OC)cc1OC (stereo not drawn) | 0.6%
FC(F)(F)c1ccnc(N2CCOCC3(CN(Cc4ccccc4)C3)C2)n1 | 0.9%[70.6 µM]
CCCCNC(=O)c1cccc2c1CCN2C(=O)C1CC1 | -2.4%
COC1CCOC2(CCN(C(=O)Nc3cccc(C)c3)CC2)C1 (stereo not drawn) | 0.0%

Exported in CSV form: part of the list above
Molecule,NPR1 antag
Cn1nc(C(=O)N2CCC(OCCOc3ccccc3)CC2)c2ccccc21,-0.6%
CCNC(=O)[C@@H]1C[C@H](NC(=O)c2ccc(CO)o2)CN1Cc1nccs1,3.7%
O=C1Nc2ccc(-c3cccc(C(F)(F)F)c3)cc2C(=O)N2CCN(C(=O)[C@@H]3CSCN3)C[C@H]12,1.2%
COc1ccccc1CNC(=O)c1ccc2c(c1)C(O)CCCCCN2C (stereo not drawn),-14.2%

Continued.
SMILES	NPR1 antag
COCCn1cnc2ccc(-c3ccc(F)cc3)nc2c1=O	9.5%[70.6 µM]
CNC(=O)[C@H]1C[C@H](Oc2ccccc2)CN1S(=O)(=O)c1c(C)noc1C	13.1%
COCCNC(=O)[C@@H]1C[C@H](Oc2ccccc2)CN1C(=O)c1cnc(C)cn1	5.9%
Cc1ccc(C)c(NC(=O)N2CC(n3cc(COc4ccccc4)nn3)C2)c1	2.6%
CCNC(=O)[C@@H]1C[C@H](NC(=O)c2oc(C)nc2C)CN1C1CCOCC1	6.1%
O=C(Cc1ccc(F)cc1)N1CCC2(CC1)CCN(Cc1cccs1)c1ccccc1O2	-4.3%
O=C(c1nccc2ccccc12)N1CCC(Cc2nc(C3CC3)n[nH]2)C1 (stereo not drawn)	-13.3%
Cc1ccc(-c2nc(C3CC(=O)N(c4ccc(Cl)cc4)C3)no2)cc1 (stereo not drawn)	2.3%
O=C(c1ccccn1)N1CCC(N(Cc2cccnc2)C2CCOCC2)CC1	1.5%
CC(NC(=O)Cc1cccn1-c1cccc(Cl)c1)c1cccnc1 (stereo not drawn)	-0.8%
Cc1nc(C(C)C)ncc1C(=O)N1CCC2(CCCN(C)C2=O)C1 (stereo not drawn)	4.0%
Cn1c(C(=O)N2CCN(c3ccccc3)CC2)cc2c1CCN(Cc1cccc(F)c1)C2	-5.1%
Cc1ccc(CNC(=O)Nc2cccc(-c3ccc(N4CCOCC4)nn3)c2)cc1	-25.5%
COC(=O)[C@H]1CN(C(=O)N2CCOCC2)CCN1C(C)=O	1.0%[70.6 µM]
CNC(=O)Nc1ccc(C2(C(=O)N3CCN(c4cccc(Cl)c4)CC3)CCC2)cc1	7.0%
CC(c1ccc(-n2cncn2)cc1)n1ccnc1-c1cc2n(n1)CCNC2 (stereo not drawn)	10.2%
COCCn1nnnc1C1CC2(CCOCC2)C(=O)N1Cc1cccc(F)c1 (stereo not drawn)	-1.1%
COc1cc(C(=O)N2CCCC(c3nnc(Cn4ccnc4)n3C)C2)ccc1C (stereo not drawn)	4.4%
O=C(Nc1cc(F)ccc1Cl)c1cc2n(n1)CC(c1ccc3c(c1)OCO3)OC2 (stereo not drawn)	1.5%
CC(C)Oc1ccc2c(NC(=O)C3(C(N)=O)CC3)nn(CC(F)(F)F)c2c1	7.0%
Cc1cnn(CCC(=O)N2CCCCCCNC(=O)[C@@H]3CCCC[C@@H]32)c1	-1.0%
O=C(NC[C@H]1OC[C@@H](NCc2cccnc2)[C@@H]1O)N1CCOCC1	0.9%[70.6 µM]
CCc1ccc(C(=O)N2CCC(c3cc(-c4cccc(OC)c4)n[nH]3)CC2)cc1	?
Oc1cccc(CN(Cc2cn(-c3ccccc3)nn2)C2CC2)c1	-5.5%
CC(C(=O)O)N1CC2(CCC1=O)CCN(C(=O)CN1CCCC1)CC2 (stereo not drawn)	0.0%
Cc1nc(CC2CCN(C(=O)c3cccn3C)CC2)n[nH]1	0.1%
CC(C)CCN1CC2(CCCN(C(=O)Cn3ccc(=O)[nH]c3=O)C2)CCC1=O (stereo not drawn)	8.2%
Nc1ccc(-c2ccc(OCCn3ccnc3)cc2)cn1	7.9%
CC/C=C\CCc1c(-c2ccccc2)ncn1CCN1CCN(C)CC1	-2.2%
COCCC1(CO)CCCN(CC(=O)NCc2ccccn2)C1 (stereo not drawn)	5.5%
